# VACV mCherry inh: inhibitors of vaccinia virus infection (mCherry reporter signal); Vaccinia virus mCherry reporter infection, fluorescence; about a quarter of the inactives have no number; Potency, µM (titrated, usually from 36.5 µM), for the others: at the top dose activity change, negative = inhibition, actives largely listed as inhibitors; 310,000 compounds, 0.63% hits; active = well fitted inhibition curve with a large enough effect; inconclusive = small, poorly fitted or top-dose-only effect; inactive = no such curve, though single readings can be large or run the other way; tested in A549 cells; also: nearly all actives have a fitted effect of over 35% in size; inactives centre near -10
# VACV Venus inh: inhibitors of vaccinia virus (Venus reporter); Potency, µM (highest dose often 36.5 µM), without a hit: top-dose activity change, negative = inhibition, hits mostly inhibitors; AID 720580; Vaccinia virus Venus reporter expression, fluorescence; 330,000 compounds, 0.46% hits; active means well fitted inhibition curve with a large enough effect; inconclusive means small, poorly fitted or top-dose-only effect; inactive means no such curve, though single readings can be large or run the other way; tested in A549 cells; also: nearly all actives have a fitted effect of over 30% in size; inactives centre near -10
# Active calls of the source: *; i = inactive; ? = inconclusive; · = not tested or not shown; & = joins results of further samples; [ ] = another dose, or the depositor's remark. % is scaled to controls: 0 for no effect and ±100 for the full control effect; potency is read from the fitted curve at half-maximal effect. Hits appear at their usual frequency. About 0.82% of those tested had a hit in this group.
SMILES,VACV mCherry inh,VACV Venus inh
O=[N+]([O-])c1cccc(/C=C/C=N/Nc2nc(N3CCCCC3)nc(N3CCCCC3)n2)c1,-15%,-3%
COc1ccc(CNC(=O)COc2cc(O)c3c(c2)OC(C)(C)CC3=O)c(OC)c1,4%,2%
Cc1cc(NC(=O)c2cccc(S(=O)(=O)Nc3cccc(C(=O)O)c3)c2)no1,i,-10%
Cn1c(SCC(=O)Nc2ccc(N3CCOCC3)cc2)nnc1C1CC1,-11%,-8%
COc1ccc(OC)c(CNc2ccc3c(c2)nc(C)n3C)c1,-2%,-13%
COc1cc2oc(=O)c(Br)c(C)c2c(OC)c1OC,·,-10%
CCc1ccc(S(=O)(=O)c2cn(C)c3cc(N4CCN(CC)CC4)c(F)cc3c2=O)cc1,0%,-16%
COc1nc(OC)nc(N2CCCCCC2)n1,-10%,-7%
O=C(NC1CCCCC1)NC1(C(=O)NCCCN2CCOCC2)CCCCC1,i,-12%
Cc1ccc(-c2nn3c(-c4ccc(C)cc4)nnc3c3ccccc23)cc1,-13%,-7%
CN1C(=O)C(CC(=O)Nc2ccc(F)cc2)N(CCCc2ccccc2)C1=S (stereo unspecified),·,?
COc1ccc(C(=O)N[C@H](C(=O)NCc2ccco2)C(C)C)cc1,-11%,-25%
CC(C)C(NS(=O)(=O)c1cccs1)C(=O)NCc1ccccc1Cl (stereo unspecified),i,-13%
COc1ccccc1N1CC(O)=C(c2nc3ccccc3s2)C1=N,?,?
COc1ccc(-c2[nH]nc3c2C(c2ccc(OC(=O)N4CCOCC4)cc2)C(C#N)=C(N)O3)cc1 (stereo unspecified),-7%,-2%
COc1ccc(-n2cc(-c3ccccc3)c3c(NC4CCCC4)ncnc32)cc1,-8%,-4%
CCn1c(Cc2ccccc2)nnc1SCC(=O)Nc1nnc(-c2ccccc2)s1,-20%,-9%
CCCOc1ccc(N2C(=O)CC(NNC(=O)c3ccc(COc4ccccc4)o3)C2=O)cc1 (stereo unspecified),-28%,-24%
O=C1CSC2(C(=O)N(Cc3ccccc3F)c3ccccc32)N1c1cccc(C(F)(F)F)c1 (stereo unspecified),-8%,7%
O=C(Cc1ccsc1)NNC(=O)c1ccccc1O,?,-24%
O=C(O)CSc1nnc(-c2ccncc2)n1Cc1ccccc1,·,-9%
CCC(=O)N1CCc2cc(S(=O)(=O)NC(CC(C)C)C(=O)Nc3cccc(C)c3C)ccc21 (stereo unspecified),-20%,-12%
COc1ccccc1-c1cc2nc(C)c(CCC(=O)NCc3ccc(F)cc3)c(C)n2n1,i,-17%
O=C(COc1ccccc1)NCC(c1ccc(Cl)cc1)N1CCCCC1 (stereo unspecified),-11%,4%
Cc1[nH]n2c(=O)c3c(nc2c1-c1ccc(F)cc1)CCCC3,0%,4%
CC1(C)CC(=O)C(=CN2CCOCC2)C(=O)C1,0%,-2%
Cc1ccc(C)c(OCCC(=O)OCC(=O)N2CCN(c3ccccc3)CC2)c1,-13%,-7%
CC(C)c1cc(C(=O)NC2CCCCCC2)c2ccccc2n1,-4%,-15%
Cc1ccc(NC(=O)C(NC2CCCc3ccccc32)c2ccccc2)c([N+](=O)[O-])c1 (stereo unspecified),i,-6%
C/C(=N\NC(=O)c1ccccc1O)c1ccc(Br)s1,?,-24%
CCc1cccc(CC)c1NC(=O)COC(=O)c1ccc(F)c(S(=O)(=O)N(CC)CC)c1,-14%,-7%
CC(=O)c1cccc(NC(=O)NC2CCCCCCC2)c1,i,-29%
O=C(NNC(=S)Nc1ccccc1Cl)c1ccccc1Cl,i,-8%
Cc1cccc(N(CC(=O)NC2CCCCC2)C(=O)Cn2nnc(-c3ccc(C)o3)n2)c1,-10%,-6%
O=C(Cn1ncc2c3ccccc3n(Cc3ccccc3)c2c1=O)NC1CCCCCC1,-14%,-9%
COc1ccc(C(=O)NC(=S)NCCO)cc1Br,-18%,-7%
O=S(=O)(c1ccc2nc(-c3ccco3)c(-c3ccco3)nc2c1)N1CCOCC1,·,-5%
CN(C(=O)CCNC(=O)Cn1cnc2ccccc2c1=O)c1ccccc1F,-17%&-6%,-2%&2%
O=c1[nH]c2cc3c(cc2cc1CN(Cc1nnnn1CC1CCCO1)C1CCCC1)OCO3 (stereo unspecified),-3%,-15%
Cc1cc(N/C=C\c2nnnn2-c2ccccc2)no1,-11%,-8%
CCCC(=O)C1=C(O)C(C(=O)OC)C(C)(C)CC1=N (stereo unspecified),·,-8%
CCOC(=O)C(NC(=O)c1ccccc1)(Nc1cc(C)on1)C(F)(F)F (stereo unspecified),-7%,-6%
CCc1ccc([C@@H]2CC(=O)[C@@H]3CN(S(=O)(=O)c4ccccc4C)[C@H](c4ccc(Cl)cc4)C[C@@H]3N2S(=O)(=O)c2ccc(C)cc2)cc1,12%,-17%
C=CCOC(=O)C1=C(C)OC(N)=C(C#N)C1c1c(C)nn(-c2ccccc2)c1Cl (stereo unspecified),·,-8%
CN(C)c1ccc(/C=C/c2ccnc3ccc([N+](=O)[O-])cc23)cc1,-14%,41%[activator]
O=c1c2sc3ccccc3c2n(Cc2ccc(F)cc2)c(=O)n1Cc1ccco1,-9%,-8%
COc1ccc(S(=O)(=O)N2CCCCC2)cc1NC(=O)[C@@H]1CCCN1C(=O)c1cccs1,-11%,-13%
O=C(CNC(=O)c1cccs1)N/N=C/c1c(F)cccc1Cl,i,-14%
Cc1cc(N2CCN(c3cccc(C(F)(F)F)c3)CC2)n2nc(-c3ccccc3)nc2n1,-1%,-1%
CCC(=O)N1CCC2(CC1)Oc1ccc(F)cc1C(=O)C21CC(c2ccccc2)=NO1 (stereo unspecified),4%,9%
# Next entries:
SMILES,VACV mCherry inh,VACV Venus inh
Cc1cc(C)c2c(/C=C/c3ccc(N(C)C)cc3)ccnc2c1,41%[activator],14%
CCC(CC)NC(=O)Cc1ccc(F)cc1,-3%,-14%
CC(C)n1c(SCc2cc(=O)[nH]c3ccccc23)nc2c1c(=O)n(C)c(=O)n2C,7%,12%
O=C(CSc1nccn1Cc1ccc(Cl)cc1)Nc1ccc2c(c1)OCO2,i,-6%
Fc1ccccc1CNc1ncnc2sccc12,-14%,8%
CCOC(=O)C1=CN(Cc2cccc(-c3cccnc3)c2)S(=O)(=O)N(CC)C1C (stereo unspecified),-5%,-19%
CSc1ccc(CNC(=O)c2ccc(NC(=O)C3=CSCCO3)cc2)cc1,4%[7.34 µM],0%[7.34 µM]
Cc1cc(C)c2c(N)c(C(=O)NN3CC(=O)N(c4ccccc4F)CC3=O)sc2n1,-12%[1.46 µM],-26%
COc1cc(C(Nc2ccc3c(c2)OCO3)C(=O)NC2CCCCC2)cc(OC)c1OC (stereo unspecified),15%,13%
CCOc1ccc(NC(=O)CN(C)C(=O)C(C)Oc2ccc(Cl)cc2)cc1OCC (stereo unspecified),-27%,-23%
COc1ccc(Cl)cc1NC(=O)CSc1c2c(nc3ccccc13)CCC2,-14%,-14%
Cc1ccccc1N1CCN(Cc2c(C#N)c3ccccc3n2C)CC1,-12%,-9%
Cc1ccccc1-c1cnc(C(O)c2ccc(F)cc2)[nH]1 (stereo unspecified),2%,-3%
Cc1nc(Nc2cnc(/C=C/c3cc(C(=O)Nc4cccc(C(F)(F)F)c4)ccc3C)cn2)cc(N2CCNCC2)n1,?,10µM*
CCCSc1nnc2nc3c(nn12)c1ccccc1n3C,?,-28%
Cc1cccc(NC(=O)c2cc(S(=O)(=O)N3CCCC3)cn2C)c1,i,-14%
COc1ccccc1C(=O)c1c(C)c(CCC#N)n2ccccc12,-5%,-6%
Cc1ccc(N(C(=O)c2csnn2)C(C(=O)NC(C)(C)C)c2cccs2)cc1 (stereo unspecified),-8%,-13%
Cc1noc(/C=C/N(C)C)c1S(=O)(=O)N1CCCC(C(=O)Nc2ccc(F)cc2F)C1 (stereo unspecified),-13%,-7%
C#CC(C)(CC)NC(=O)Cn1nnc(-c2cccc(C(F)(F)F)c2)n1 (stereo unspecified),i,-14%

# Reformatted: results already given.
mol | VACV mCherry inh | VACV Venus inh
C=CCOC(=O)C1=C(C)OC(N)=C(C#N)C1c1c(C)nn(-c2ccccc2)c1Cl (stereo unspecified) | · | -8%
CN(C)c1ccc(/C=C/c2ccnc3ccc([N+](=O)[O-])cc23)cc1 | -14% | 41%[activator]
O=c1c2sc3ccccc3c2n(Cc2ccc(F)cc2)c(=O)n1Cc1ccco1 | -9% | -8%
COc1ccc(S(=O)(=O)N2CCCCC2)cc1NC(=O)[C@@H]1CCCN1C(=O)c1cccs1 | -11% | -13%
O=C(CNC(=O)c1cccs1)N/N=C/c1c(F)cccc1Cl | i | -14%
Cc1cc(N2CCN(c3cccc(C(F)(F)F)c3)CC2)n2nc(-c3ccccc3)nc2n1 | -1% | -1%
CCC(=O)N1CCC2(CC1)Oc1ccc(F)cc1C(=O)C21CC(c2ccccc2)=NO1 (stereo unspecified) | 4% | 9%
Cc1cc(C)c2c(/C=C/c3ccc(N(C)C)cc3)ccnc2c1 | 41%[activator] | 14%
CCC(CC)NC(=O)Cc1ccc(F)cc1 | -3% | -14%
CC(C)n1c(SCc2cc(=O)[nH]c3ccccc23)nc2c1c(=O)n(C)c(=O)n2C | 7% | 12%
O=C(CSc1nccn1Cc1ccc(Cl)cc1)Nc1ccc2c(c1)OCO2 | i | -6%
Fc1ccccc1CNc1ncnc2sccc12 | -14% | 8%
CCOC(=O)C1=CN(Cc2cccc(-c3cccnc3)c2)S(=O)(=O)N(CC)C1C (stereo unspecified) | -5% | -19%
CSc1ccc(CNC(=O)c2ccc(NC(=O)C3=CSCCO3)cc2)cc1 | 4%[7.34 µM] | 0%[7.34 µM]
Cc1cc(C)c2c(N)c(C(=O)NN3CC(=O)N(c4ccccc4F)CC3=O)sc2n1 | -12%[1.46 µM] | -26%
COc1cc(C(Nc2ccc3c(c2)OCO3)C(=O)NC2CCCCC2)cc(OC)c1OC (stereo unspecified) | 15% | 13%
CCOc1ccc(NC(=O)CN(C)C(=O)C(C)Oc2ccc(Cl)cc2)cc1OCC (stereo unspecified) | -27% | -23%
COc1ccc(Cl)cc1NC(=O)CSc1c2c(nc3ccccc13)CCC2 | -14% | -14%
Cc1ccccc1N1CCN(Cc2c(C#N)c3ccccc3n2C)CC1 | -12% | -9%
Cc1ccccc1-c1cnc(C(O)c2ccc(F)cc2)[nH]1 (stereo unspecified) | 2% | -3%
Cc1nc(Nc2cnc(/C=C/c3cc(C(=O)Nc4cccc(C(F)(F)F)c4)ccc3C)cn2)cc(N2CCNCC2)n1 | ? | 10µM*
CCCSc1nnc2nc3c(nn12)c1ccccc1n3C | ? | -28%
Cc1cccc(NC(=O)c2cc(S(=O)(=O)N3CCCC3)cn2C)c1 | i | -14%
COc1ccccc1C(=O)c1c(C)c(CCC#N)n2ccccc12 | -5% | -6%

# Some of these compounds in order of SMILES length, highest first.
SMILES,VACV mCherry inh,VACV Venus inh
Cc1nc(Nc2cnc(/C=C/c3cc(C(=O)Nc4cccc(C(F)(F)F)c4)ccc3C)cn2)cc(N2CCNCC2)n1,?,10µM*
Cc1cccc(NC(=O)c2cc(S(=O)(=O)N3CCCC3)cn2C)c1,i,-14%
COc1ccccc1C(=O)c1c(C)c(CCC#N)n2ccccc12,-5%,-6%

# Continuation.
SMILES,VACV mCherry inh,VACV Venus inh
CC(=O)O[C@@H]1CC[C@]2(C)C3CC[C@@]4(C)C(C[C@@H](O)[C@@H]4O)C3[C@@H](OC(C)=O)C[C@H]2C1 (stereo partly specified),-19%,3%
CSC1=NCCN1C(=O)c1ccco1,0%,0%
O=C(c1cccs1)N1CCN(c2ncccn2)CC1,-6%,-2%
CCn1nc(C)c2c(-c3ccccc3)cc(=O)n(C(C)C(=O)Nc3cc(C)ccc3C)c21 (stereo unspecified),-9%,-4%
Cc1ccc(-c2noc(CSc3nnc(C)n3-c3ccc(C)c(C)c3)n2)cc1,-1%,-4%
Cn1c(=O)c2c(-c3ccccc3)n(-c3cccc(C#N)c3)cc2n(C)c1=O,-10%,-15%
CCCn1c(SCC(=O)c2cc(C)c(C)cc2C)n[nH]c1=O,-6%,-25%
O=[N+]([O-])NC1=NCN(Cc2ccco2)CN1Cc1ccco1,-8%,-9%
CCCCn1nnnc1C1(C)CCC(=O)N1Cc1cccs1 (stereo unspecified),-7%,3%
CNC(=S)N/N=C/c1cn(Cc2ccc(F)cc2)c2ccccc12,3.2µM*,?
Cc1ccc(CN(C(=O)c2ccco2)C(C(=O)NC2CCCC2)c2cccnc2)cc1 (stereo unspecified),-6%,11%
Cc1nc(C(C)N(C)Cc2nc(-c3ccc4c(c3)OCO4)no2)c(C)s1 (stereo unspecified),-11%,-4%
CCCOc1ccc(F)cc1-c1cc(C(=O)NCc2ccccc2)[nH]n1,?,?
CCN1CCCC1CNC(=O)c1cn(C)c2ccc(S(=O)(=O)N3CCCCCC3)cc2c1=O (stereo unspecified),-12%,-5%
COCC(O)CSc1c([N+](=O)[O-])nc(C)n1Cc1ccc(OC)c([N+](=O)[O-])c1 (stereo unspecified),·,-12%
CCc1ccc(NC(=O)Cn2c(=O)n(Cc3ccc4c(c3)OCO4)c(=O)c3oc4ccccc4c32)cc1,-26%,-27%
